Screening results deposited in PubChem by National Center for Advancing Translational Sciences (NCATS).
LASV entry inh – qHTS for Inhibitors of binding or entry into cells for Lassa Virus | actives 1.2% (n = 300,000) | Potency, µM (titrated, usually from 37.9 µM), for inactives: at the top dose activity change, negative = inhibition, usual class: inhibitors | AID 540256, 2011 | Lassa virus pseudotype entry inhibition, cell reporter; control for the full effect not named in the record; active means well fitted inhibition curve with a large enough effect; inconclusive means small, poorly fitted or top-dose-only effect, or effect the other way; inactive means flat fitted curve, though single readings scatter; tested in HEK293 cells; note: % is set by controls: 0 for no effect and ±100 for the full control effect; nearly all actives have a fitted effect of over 50% in size; luciferase read-out
NS1 inh – qHTS Assay for Inhibitors of Influenza NS1 Protein Function. Potency, µM (titrated, usually from 46.1 µM), for inactives: at the highest dose activity, positive = more growth. S. cerevisiae slowed by influenza A NS1, growth recovery by OD600. actives 0.4% (n = 270,000); note: actives are rising curves; nearly all actives have a fitted effect of over 50% in size
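S. cerevisiae expressing influenza A NS1, grown in glucose, washed, then diluted 1:100 into pH 6.0 -URA galactose medium with 23 nl compound. Growth recovery read as OD600; NS1-free strain serves as control.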
2A StopGo – High Throughput Screening for Foot and Mouth Disease Virus Antivirals | human cells with a luciferase reporter of 2A StopGo recoding; control for the full effect not named in the record | Potency, µM (titrated, usually from 57.9 µM), without a hit: top-dose signal change, negative = less light | actives 1.2% (n = 410,000) | AID 1159524, 2015; active = well fitted falling curve with a large enough effect; inconclusive = small, poorly fitted or top-dose-only effect; inactive = no such curve, though single readings can be large or run the other way; tested in HEK293T cells; note: % is set by controls: 0 for no effect and ±100 for the full control effect; nearly all actives have a fitted effect of over 45% in size; luciferase light after 4 h
SARS PLP yeast – qHTS of Yeast-based Assay for SARS-CoV PLP; actives 0.19% (n = 330,000); S. cerevisiae expressing SARS-CoV PLpro, growth rescue; control for the full effect not named in the record; AID 485353, 2010; Potency, µM (top dose mostly 32.9 µM), for the others: at the highest dose activity, positive = growth rescue; note: 0% is about no effect; nearly all actives have a fitted effect of over 55% in size; growth read by luminescence after 48 h
Cruzain inh noDet – qHTS Assay for Promiscuous and Specific Inhibitors of Cruzain (without detergent). Cruzipain (Trypanosoma cruzi), P25779. purified cruzain, Z-FR-AMC fluorescence, no detergent. Potency, µM, inactives show max response, negative = inhibition, actives largely listed as inhibitors. actives 2.3% (n = 200,000). AID 1476, 2009; active = well fitted curve in the direction sought with a large enough effect; inconclusive = small, poorly fitted or top-dose-only effect, or another doubt; inactive = no such curve, though single readings can be large; an effect the other way counts as inactive or inconclusive;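 note: plate controls were enzyme without inhibitor for no effect and buffer without enzyme for full effect; nearly all actives have a fitted effect of over 40% in size; top concentration of the series not given in the record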
Target sequence (P25779 123-467 limits assumed): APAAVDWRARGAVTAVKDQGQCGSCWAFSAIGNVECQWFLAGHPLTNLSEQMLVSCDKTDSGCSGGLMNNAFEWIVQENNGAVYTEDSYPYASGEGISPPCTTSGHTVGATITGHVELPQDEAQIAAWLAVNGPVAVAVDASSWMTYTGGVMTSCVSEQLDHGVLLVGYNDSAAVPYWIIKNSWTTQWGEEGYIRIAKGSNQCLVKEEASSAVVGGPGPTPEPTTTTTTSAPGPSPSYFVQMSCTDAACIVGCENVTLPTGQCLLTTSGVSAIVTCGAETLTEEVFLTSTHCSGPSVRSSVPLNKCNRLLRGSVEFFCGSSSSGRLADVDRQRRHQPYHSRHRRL
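Detergent-free condition (0.00005% Triton X-100) in acetate buffer pH 5.5 with DTT. 1.5 nM enzyme and compound were pre-mixed 15 min, then 2 uM Z-FR-AMC substrate added; reaction progress from fluorescence change between first and third reads (60 s).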
Cruzain inh Det – qHTS Assay for Promiscuous and Specific Inhibitors of Cruzain (with detergent) | purified cruzain, Z-FR-AMC fluorescence, 0.01% Triton | Potency, µM, inactives show max response, negative = inhibition, most hits filed as inhibitors | actives 0.43% (n = 200,000) | Cruzipain (Trypanosoma cruzi), P25779; active = well fitted curve in the direction sought with a large enough effect; inconclusive = small, poorly fitted or top-dose-only effect, or another doubt; inactive = no such curve, though single readings can be large; an effect the other way counts as inactive or inconclusive;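 note: plate controls were neutral wells for no effect and buffer without enzyme for full effect; nearly all actives have a fitted effect of over 40% in size; top concentration of the series not given in the record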
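Read-out: AMC fluorescence (360 nm excitation, 450 nm emission), four reads over 2 min, first-to-third difference used. Conditions: cruzain 1.5 nM, Z-FR-AMC 2 uM, pH 5.5 acetate, 5 mM DTT, 0.01% Triton X-100.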
Marburg entry inh – qHTS for inhibitors of binding or entry into cells for Marburg Virus | Marburg virus pseudotyped entry inhibition, cell reporter; control for the full effect not named in the record; about a third of the inactives were read at about 46 µM | Potency, µM (top dose mostly 37.8 µM), for the others: at the highest dose activity change, negative = inhibition, actives largely listed as inhibitors | actives 1.8% (n = 300,000) | AID 540276, 2011; active = well fitted inhibition curve with a large enough effect; inconclusive = small, poorly fitted or top-dose-only effect, or effect the other way; inactive = flat fitted curve, though single readings scatter; tested in HEK293 cells; about a fifth of its hits are not listed in these tables; note: % is set by controls: 0 for no effect and ±100 for the full control effect; luciferase read-out
RE007 growth inh – qHTS Assay for Inhibitors of the HIV-1 protein Vpr; S. pombe RE007 Vpr strain, BacTiter-Glo ATP luminescence, 24 h; control for the full effect not named in the record; Potency, µM (highest dose often 92.2 µM), without a hit: top-dose activity change, negative = less growth; actives 0.21% (n = 360,000); active = well fitted falling curve with a large enough effect; inconclusive = small, poorly fitted or top-dose-only effect; inactive = no such curve, though single readings can be large or run the other way;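 note: % is set by controls: 0 for no effect and ±100 for the full control effect; nearly all actives have a fitted effect of over 50% in size; the assay follows cell death caused by Vpr and the record does not say whether a fall means rescue or toxicity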
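Fission yeast RE007 carrying one integrated HIV-1 vpr copy, seeded at OD 0.01 in PMG+AL medium with 23 nL pinned compound. Grown 24 h at 30 degrees; viability read by BacTiter-Glo luminescence after 5 min.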
Numbers without * were called inactive; ? = inconclusive; / = no result given; & = joins results of further samples; [ ] = dose if it differs, or a comment. Unless noted, calls come from the whole dose curve; as a rule, active means well fitted rising curve with a large enough effect; inconclusive means small, poorly fitted or top-dose-only effect; inactive means no such curve, though single readings can be large or run the other way. Potency is the fitted concentration of half-maximal effect.

nr | compound | LASV entry inh | NS1 inh | 2A StopGo | SARS PLP yeast | Cruzain inh noDet | Cruzain inh Det | Marburg entry inh | RE007 growth inh
1 | C/C(=N\NC(=O)c1nnn(-c2nonc2N)c1C)c1ccc(OCc2ccccc2)cc1 | / | 14% | 35%[activator] | 0% | / | / | / | -2%
2 | CC(=O)c1ccc(-c2ccc(C(=O)N3CCCc4ccccc43)o2)cc1 | ? | / | -15% | -1% | / | / | ? | 1%
3 | Cc1ccc(CNC(=O)CSc2nc3ccccc3c(=O)n2CCCO)cc1 | -20% | -4% | / | -2% | 5% | 11% | -9% | 15%
4 | Cn1c(=O)c2c(nc(CCc3ccccc3)n2C)n(C)c1=O | 3%[46.1 µM] | / | -1% | / | / | / | 15%[46.1 µM] | 4%
5 | CCCN1CCN(C2CCCCC2NS(=O)(=O)c2ccc(Cl)cc2)CC1 (stereo not drawn) | / | -2% | 0% | 6% | / | / | / | 0%
6 | CC1CCC2(CC1)NC(=O)N(CC(=O)N(Cc1ccccc1)C(C)(C)C)C2=O (stereo not drawn) | 19% | / | -7% | 2% | / | / | 26% | 15%
7 | COc1ccc(CCNC(=O)Cc2cc(=O)[nH]c(=O)[nH]2)cc1OC | / | ? | -20% | 11% | -4% | 0.9% | / | 2%
8 | Cc1ccc(-n2nc3c(=O)n(C(C)C(=O)NCCC4=CCCCC4)nc(C)c3c2C)cc1 (stereo not drawn) | / | 8% | 14µM* | 2% | / | / | / | -14%
9 | CCCc1cc(=O)[nH]c2nnc(SCC(=O)Nc3ccc4c(c3)OCCO4)n12 | 14% | / | 0% | -1% | / | / | ? | -5%
10 | Cn1nc(-c2ccc(Cl)cc2)cc1NC(=O)CC(C)(C)CC(=O)O | / | 3% | 38%[activator] | 3% | / | / | / | -5%
11 | Cc1ccc(S(=O)(=O)N(C)C)cc1NC(=O)c1ccccc1Br | 6% | 5% | 12% | 2% | / | / | 7%[46.1 µM] | 16%
12 | Cc1nn(CCc2nn[nH]n2)c2nc(-c3ccc(Br)cc3)cc(C(F)(F)F)c12 | -6% | / | -16% | 2% | / | / | 0%[46.1 µM] | 11%
13 | Cc1ccccc1NCC(=O)N=Nc1c(O)[nH]c2ccc([N+](=O)[O-])cc12 | / | 6% | -25% | -2% | / | / | / | 11%
14 | COc1cc(C(=O)Nc2c(C(=O)Nc3ccccc3F)oc3ccccc23)cc(OC)c1OC | ? | / | 3% | / | -4% | 1.2% | 3%[46.1 µM] | /
15 | CCNC(=O)NC(=O)C(C)OC(=O)c1cccnc1SC (stereo not drawn) | -12% | -2% | -21% | / | / | / | -7% | 16%
16 | Cc1ccc(NC(=O)COC(=O)c2ccc(=O)n(Cc3ccccc3)n2)cc1F | 6% | / | -24% | -3% | / | / | -20% | 2%
17 | O=C(Nc1ccc(S(=O)(=O)N2CCC(c3nc4ccccc4s3)CC2)cc1)c1ccccc1F | 6%[46.1 µM] | / | ? | / | 7% | -4.0% | -16%[46.1 µM] | /
18 | CC(C)n1cnc2cc(NCc3ccccc3O)ccc21 | 9% | -1% | 39%[activator] | 0% | / | / | 1%[46.1 µM] | 1%
19 | OC[C@H]1O[C@@H](n2cnc3cncnc32)[C@H](O)[C@@H]1O | ? | 0% | -25% | / | -5%&-5% | -4.3%&2.3% | ? | /
20 | O=C(NCC1CCCO1)[C@@H]1CSC2c3ccccc3C(=O)N21 (stereo partly drawn) | ? | -8% | -24% | 6% | 20% | 5.0% | ? | 4%
21 | COc1cccc(C(=O)Nc2cccc(NC(C)=O)c2)c1 | 29% | 5% | 36%[activator] | -2% | 6% | 0.8% | 1% | -3%
22 | Nc1nc(N)c(N=Nc2ccccc2)c(=O)[nH]1 | -22%[46.1 µM] | / | 13% | / | / | / | ? | -11%
23 | O=C(Nc1ccc(Cl)cc1)N1CCOC12CCC1(CC2)OCCO1 | 2% | -3% | 32%[activator] | 0% | / | / | 13%[46.1 µM] | 24%
24 | COC(=O)c1ccc(NC(=O)CNCc2ccncc2)cc1 | 5% | -21% | -10% | -14% | -1% | -2.6% | 20% | 18%
25 | CCCOC(=O)Nc1c(C)cccc1C(C)C | / | 2% | -24% | 1% | / | / | / | -2%
26 | O=C(C1CCCN(S(=O)(=O)c2cccc3nsnc23)C1)N1CCc2ccccc2C1 (stereo not drawn) | ? | 9% | 25µM* | -3% | -16% | -4.3% | -48% | -17%
27 | Cc1[nH]n(-c2nc(-c3ccccc3F)cc(=O)[nH]2)c(=O)c1CCO | 24%[46.1 µM] | -1% | 1% | 10% | / | / | 0%[46.1 µM] | 20%
28 | O=C(Nc1onc2c1CCCC2)c1ccc(Cl)cc1 | 14%[46.1 µM] | / | -36% | / | -5% | -3.9% | / | /
29 | CCc1ccccc1NC(=S)N(Cc1ccc(OC)cc1)CC1CCC(C(=O)O)CC1 (stereo not drawn) | 9%[46.1 µM] | / | -15% | -3% | / | / | ? | 30%
30 | CCCCc1cc(=O)oc2cc(OC(C)C(=O)NCC3CCC(C(=O)O)CC3)c(Cl)cc12 (stereo not drawn) | / | -3% | -25% | 8% | / | / | / | -5%
31 | O=S(=O)(c1ccccc1)N1CCN(c2nc(-c3cccnc3)nc3ccccc23)CC1 | 14% | / | ? | -2% | / | / | -8%[46.1 µM] | 1%
32 | COc1ccc(CCn2c(=O)[nH]c3cc(C(=O)NCCc4ccccc4)ccc3c2=O)cc1OC | / | -15% | / | -5% | -24% | 5.1% | / | /
33 | CN1/C(=C\C=N\NC(=O)c2cccnc2)C(C)(C)c2ccccc21 | / | 8% | -10% | 0% | / | / | / | -9%
34 | Cc1ccc(NC(=S)NC2CCSc3ccccc32)cc1C (stereo not drawn) | -1%[46.1 µM] | -2% | -8% | -11% | / | / | ? | -4%
35 | Cc1ccc(NC(=O)c2ccc3c(c2)C(=O)N(c2cc(C)ccc2C)C3=O)nc1 | / | -9% | 29% | -6% | / | / | / | -3%
36 | COC(=O)c1ccccc1NC(=O)CS(=O)(=O)Cc1nc(-c2ccc(C)cc2)oc1C | / | -3% | -25% | 5% | 6% | -4.3% | / | -6%
37 | Cc1ccccc1C(=O)Oc1ccc2ccc(O)cc2c1 | / | -20% | 80%[activator] | -9% | / | / | / | 1%
38 | Cc1ccc(/C=C/C2=NN(Cc3ccccc3)C(=O)CC2)cc1 | ? | 12% | -4% | 11% | -1% | -9.3% | 0% | -15%
39 | COc1cc(SC)ccc1C(=O)NCc1ccccc1 | -7% | 2% | 29% | 11% | 8% | 3.1% | -3% | /
40 | COc1ccc(-c2cc(-c3n[nH]c(=S)n3-c3cccc4ccccc34)[nH]n2)cc1 | 9% | 3% | -11% | -1% | / | / | 3%[46.1 µM] | 2%
41 | CC(C)(C)SCCNC(=O)c1ccc(NS(C)(=O)=O)cc1 | 24% | -6% | / | 4% | -1% | 5.1% | 12% | 10%
42 | Cc1ccc(S(=O)(=O)N(C)C)cc1NC(=O)COC(=O)/C=C/c1ccc2c(c1)OCO2 | -12%[46.1 µM] | / | -8% | 0% | / | / | ? | 10%
43 | CCOC(=O)c1oc2ccc(CNC3CCCCC3)c(Cl)c2c1C | ? | -3% | / | -6% | -5% | -14% | 7.3µM* | -10%
44 | COc1ccc(CNC(=O)c2cc(-n3cnnc3)ccc2Cl)cc1 | 11% | 5% | -17% | -1% | 2% | 3.5% | 16% | -16%
45 | COc1ccccc1N1CCN(C(=O)c2cc(-c3ccc(C)cc3)on2)CC1 | -3% | -73% | 6% | -12% | ? | -5.6% | 1% | -10%
46 | Cc1ccccc1NC(=O)Cc1nnc(SCC(=O)NC2CCCCC2)n1C | 5%[46.1 µM] | 0% | -6% | 4% | / | / | 0%[46.1 µM] | 5%
47 | Cc1ccc(O)c(NC(=O)CN(C)S(=O)(=O)c2ccc(Cl)cc2)c1 | / | -4% | -2% | -1% | / | / | / | -3%
48 | CN1CCN(C(=O)c2ccc(Oc3ccc([N+](=O)[O-])cc3)cc2)CC1 | -8% | / | -29% | 0% | / | / | 12%[46.1 µM] | 8%
49 | CSc1nnc(-c2nnc(SC)n2-c2ccccc2)n1-c1ccccc1 | -3% | -14% | -19% | 7% | 4% | -2.0% | -1%&0% | 0%
50 | NCCCCN=C(N)N | 4% | -7% | -11%&-1%&-22%&-4% | / | ? | -1.9%&2.8%&9.9% | ? | /
51 | CC(=O)c1cccc(NC(=O)Nc2cnn(Cc3ccc(Cl)cc3Cl)c2)c1 | 1% | 4% | ? | -3% | 3% | -11% | 15% | 7%
52 | Cc1ccc(C)c(S(=O)(=O)NCCCn2ccnc2)c1 | 7% | 8% | 55%[activator] | 5% | 2% | 0.7% | 3% | 6%
53 | CNS(=O)(=O)c1cccc(C(=O)OCC(=O)Nc2ccc3ccccc3c2)c1 | -1%[46.1 µM] | / | 1% | -5% | / | / | 5%[46.1 µM] | 0%
54 | O=C(O)c1cc(N/N=C/c2ccc(-c3ccc(F)cc3)o2)ccc1Cl | 1% | 0% | 56%[activator] | 1% | / | / | ? | -11%

Copied from above: nos. 49 to 51
nr | compound | LASV entry inh | NS1 inh | 2A StopGo | SARS PLP yeast | Cruzain inh noDet | Cruzain inh Det | Marburg entry inh | RE007 growth inh
49 | CSc1nnc(-c2nnc(SC)n2-c2ccccc2)n1-c1ccccc1 | -3% | -14% | -19% | 7% | 4% | -2.0% | -1%&0% | 0%
50 | NCCCCN=C(N)N | 4% | -7% | -11%&-1%&-22%&-4% | / | ? | -1.9%&2.8%&9.9% | ? | /
51 | CC(=O)c1cccc(NC(=O)Nc2cnn(Cc3ccc(Cl)cc3Cl)c2)c1 | 1% | 4% | ? | -3% | 3% | -11% | 15% | 7%
